From PubChem BioAssay
Env fusion inh = HIV envelope-mediated fusion inhibition. inhibition, % at 12.3 µM. 360,000 tested, 1.1% active. HeLa-JRFL Env/CEM21 cell fusion, luciferase. AID 651610;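 active = mean replicate inhibition score of at least 50 and every replicate individually at or above 50; inconclusive = only one of the two criteria met; inactive = mean below 50 and not all replicates reaching 50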;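 note: 0% = plate neutral controls and 100% = maraviroc near 300 nM; one replicate is shown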
UUG fidelity = yeast start codon fidelity modulation; S. cerevisiae UUG-firefly luciferase reporter, luminescence/redox ratio; activity score, % at 18.7 µM; 350,000 tested, 0.13% active; AID 602363;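 active = replicate mean at a twofold rise or more, about +100% in these data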;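 note: firefly luciferase made from a UUG start codon reports start codon fidelity; reporter light over untreated wells divided by growth signal over untreated wells; some hits fall short of that in this replicate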
An asterisk follows results filed as active; ? = inconclusive; [ ] = dose if it differs, or a comment.

SMILES	Env fusion inh	UUG fidelity
C[C@H](O)C#Cc1cnc2c(c1)C(=O)N([C@@H](C)CO)C[C@@H](C)[C@@H](CN(C)Cc1ccccn1)O2	-27.4[16.7 µM]	-24.4
C[C@H]1CN([C@@H](C)CO)C(=O)c2cc(-c3ccncc3)cnc2O[C@@H]1CN(C)C(=O)Cc1ccccn1	7.8[16.7 µM]	-19.4
COc1ccc(NC(=O)Nc2ccc3c(c2)C(=O)N([C@H](C)CO)C[C@H](C)[C@H](CN(C)S(=O)(=O)c2cccs2)OCCCC[C@@H](C)O3)cc1	8.7[16.7 µM]	-8.3
N#C[C@H]1[C@@H](c2ccc(-c3ccccc3F)cc2)[C@H](CO)N1C(=O)C1CC1	1.5[16.7 µM]	-9.6
C[C@H](CO)N1C[C@H](C)[C@H](CN(C)C(=O)Nc2cccc3ccccc23)Oc2ccc(NC(=O)CCN3CCOCC3)cc2CC1=O	8.4[16.7 µM]	10.7
CN(C)CCCNC(=O)C[C@@H]1CC[C@H]2[C@@H](COC[C@H](O)CN2CC2CCCC2)O1	-20.8[16.7 µM]	-4.1
C[C@@H]1CCCCO[C@H](CN(C)C(=O)c2ccncc2)[C@H](C)CN([C@@H](C)CO)C(=O)c2cc(NS(C)(=O)=O)ccc2O1	-11.4[16.7 µM]	-4.5
CCO[C@H]1OC(C(=O)N2CCOCC2)=C[C@@H](C2CCCCC2)[C@@H]1CCCO	-5.1[16.7 µM]	3.6
COc1ccc([Si](C)(C)[C@H]2[C@H](CCO)O[C@@]3(C(=O)N(c4ccccc4)c4ccccc43)[C@@H]2C)cc1	19.2[16.7 µM]	11.2
C[C@@H]1CN([C@H](C)CO)C(=O)Cc2cc(NS(=O)(=O)c3ccccc3)ccc2O[C@@H]1CN(C)Cc1ccc(C(=O)Nc2ccccc2N)cc1	-126.2[16.7 µM]	-5.8
C[C@@H]1CN([C@@H](C)CO)C(=O)c2cc(C#Cc3ccccn3)cnc2O[C@H]1CN(C)C(=O)c1ccccn1	-5.7[16.7 µM]	22.3
C[C@@H]1CN([C@H](C)CO)C(=O)c2cccc(N(C)C)c2O[C@H]1CN(C)Cc1ccccc1	5.4[16.7 µM]	-0.7
CC(C)C#Cc1ccc2c(c1)O[C@H](CN(C)C(=O)c1ccccn1)[C@@H](C)CN([C@H](C)CO)S2(=O)=O	-2.1[16.7 µM]	-1.0
O=C(C[C@H]1C[C@H]2c3cc(NC(=O)Nc4ccccc4)ccc3O[C@H]2[C@H](CO)O1)NCc1ccccn1	1.2[16.7 µM]	-15.0
COc1ccc(NC(=O)N(C)C[C@@H]2Oc3ccc(NS(=O)(=O)c4c(C)noc4C)cc3CC(=O)N([C@@H](C)CO)C[C@H]2C)cc1	16.4[16.7 µM]	3.6
C[C@H]1CN([C@@H](C)CO)C(=O)c2cc(-c3cccnc3)cnc2O[C@H]1CN(C)C	-6.0[16.7 µM]	-12.1
Cc1noc(C)c1NC(=O)Nc1ccc2c(c1)CC(=O)N([C@H](C)CO)C[C@H](C)[C@H](CN(C)Cc1ccc(C(=O)O)cc1)O2	-12.7[16.7 µM]	-1.9
O=C(CCN1CCCCC1)N[C@@H]1CC[C@H](CCNS(=O)(=O)c2ccc(F)cc2)O[C@H]1CO	1.2[16.7 µM]	-3.1
O=C(Nc1cccc(Cl)c1)N[C@@H]1CC[C@H](CCNC(=O)C2CC2)O[C@@H]1CO	-2.1[16.7 µM]	10.2
C[C@@H]1CN([C@@H](C)CO)S(=O)(=O)c2ccc(C#CCN(C)C)cc2O[C@@H]1CN(C)C	0.6[16.7 µM]	12.0
CN1CCN(C(=O)C[C@@H]2C[C@H]3c4cc(NC(=O)NC5CCCCC5)ccc4O[C@H]3[C@@H](CO)O2)CC1	-9.1[16.7 µM]	2.1
C[C@H]1CCCCO[C@@H](CN(C)Cc2ccc(C(F)(F)F)cc2)[C@@H](C)CN([C@@H](C)CO)C(=O)c2cc(NC(=O)Nc3ccc4c(c3)OCO4)ccc2O1	85.6*[16.7 µM]	10.2
C[C@H](CO)N1C[C@H](C)[C@@H](CN(C)S(=O)(=O)c2ccc(Cl)cc2)OCCCC[C@H](C)Oc2ccc(NC(=O)Nc3ccccc3)cc2C1=O	-3.9[16.7 µM]	-7.5
C[C@H]1CN([C@@H](C)CO)C(=O)Cc2cc(NC(=O)Nc3ccc4c(c3)OCO4)ccc2O[C@@H]1CN(C)CC1CCCCC1	12.8[16.7 µM]	14.8
COc1ccc(S(=O)(=O)Nc2ccc3c(c2)CC(=O)N([C@H](C)CO)C[C@@H](C)[C@H](CN(C)S(C)(=O)=O)O3)cc1	-72.8[16.7 µM]	-7.4
O=C(CN1CCOCC1)NCC[C@H]1CC[C@@H](NC(=O)c2ccc3c(c2)OCO3)[C@@H](CO)O1	1.2[16.7 µM]	-7.8
COC(=O)C[C@H]1C[C@@H]2c3cc(NC(=O)C4CCC4)ccc3O[C@@H]2[C@H](CO)O1	-12.7[16.7 µM]	-2.3
Cc1ccc(S(=O)(=O)N(C)C[C@@H]2OCCCC[C@H](C)Oc3ccc(NC(=O)Nc4cccc5ccccc45)cc3C(=O)N([C@H](C)CO)C[C@H]2C)cc1	9.9[16.7 µM]	0.2
CCCC#Cc1cnc2c(c1)C(=O)N([C@H](C)CO)C[C@H](C)[C@H](CN(C)C(=O)Nc1ccc(OC)cc1)O2	-3.5[16.7 µM]	28.8
COCC(=O)Nc1ccc2c(c1)C(=O)N(C)C[C@@H](OC)[C@@H](C)CN(C)[C@@H](C)CO2	-5.4[16.7 µM]	-4.1
COc1ccc(CNC(=O)C[C@H]2CC[C@H](NS(=O)(=O)c3cccc(OC)c3)[C@@H](CO)O2)cc1	13.5[16.7 µM]	-16.7
Cc1ccc(S(=O)(=O)N[C@H]2CC[C@@H](CCn3cc(-c4cccc(F)c4)nn3)O[C@@H]2CO)cc1	12.7[16.7 µM]	-23.8
C[C@H](CO)N1C[C@H](C)[C@@H](CN(C)C)OCCCC[C@H](C)Oc2ccc(NS(=O)(=O)c3ccc(Cl)cc3)cc2C1=O	-1.6[16.7 µM]	-9.0
CO[C@@H]1CN(C)C(=O)c2ccc(NC(C)=O)cc2OC[C@@H](C)N(C(=O)C2CCC2)C[C@@H]1C	-6.8[16.7 µM]	11.6
C[C@H]1CN([C@@H](C)CO)C(=O)CCCn2cc(nn2)CO[C@@H]1CN(C)Cc1ccc2c(c1)OCO2	-11.6[16.7 µM]	-6.6
C[C@@H]1CCCCO[C@H](CN(C)C(=O)Nc2ccccc2)[C@H](C)CN([C@H](C)CO)C(=O)c2cc(NC(=O)c3ccccc3)ccc2O1	30.5[16.7 µM]	8.6

Filtered by structure, the compounds so far with a Cl atom.
SMILES	Env fusion inh	UUG fidelity
O=C(Nc1cccc(Cl)c1)N[C@@H]1CC[C@H](CCNC(=O)C2CC2)O[C@@H]1CO	-2.1[16.7 µM]	10.2
C[C@H](CO)N1C[C@H](C)[C@@H](CN(C)S(=O)(=O)c2ccc(Cl)cc2)OCCCC[C@H](C)Oc2ccc(NC(=O)Nc3ccccc3)cc2C1=O	-3.9[16.7 µM]	-7.5
C[C@H](CO)N1C[C@H](C)[C@@H](CN(C)C)OCCCC[C@H](C)Oc2ccc(NS(=O)(=O)c3ccc(Cl)cc3)cc2C1=O	-1.6[16.7 µM]	-9.0

The results go on:
SMILES	Env fusion inh	UUG fidelity
C[C@@H]1CN([C@@H](C)CO)C(=O)CCCn2cc(nn2)CO[C@H]1CN(C)C(=O)Nc1ccc2c(c1)OCO2	21.3	-7.6
CCCC#Cc1cnc2c(c1)C(=O)N([C@@H](C)CO)C[C@H](C)[C@@H](CN(C)C(=O)c1cnccn1)O2	1.7[16.7 µM]	-1.2
CC(C)CC#Cc1ccc2c(c1)O[C@@H](CN(C)C(=O)c1ccccn1)[C@H](C)CN([C@@H](C)CO)S2(=O)=O	7.6[16.7 µM]	16.5
C[C@@H]1CCCCO[C@@H](CN(C)S(C)(=O)=O)[C@@H](C)CN([C@H](C)CO)C(=O)c2cc(NS(=O)(=O)c3ccc(F)cc3)ccc2O1	-0.6[16.7 µM]	1.6
COc1cccc(C#Cc2cnc3c(c2)C(=O)N([C@H](C)CO)C[C@H](C)[C@@H](CN(C)C)O3)c1	23.1[16.7 µM]	14.0
Cc1ccc(-c2cnc3c(c2)C(=O)N([C@@H](C)CO)C[C@@H](C)[C@H](CN(C)Cc2ccccc2F)O3)cc1	-10.3[16.7 µM]	1.2
C[C@@H]1CN([C@@H](C)CO)S(=O)(=O)c2ccc(-c3cccc(F)c3)cc2O[C@H]1CN(C)C(=O)c1cccc(F)c1	16.1[16.7 µM]	25.8
C[C@H](CO)N1C[C@H](C)[C@@H](CN(C)C(=O)c2ccncc2)OCCCC[C@H](C)Oc2ccc(NC(=O)CCC(F)(F)F)cc2C1=O	-36.0[16.7 µM]	11.9
C[C@H]1CN([C@@H](C)CO)C(=O)c2cc(C#CC3CCCCC3)cnc2O[C@H]1CN(C)Cc1cccnc1	-7.3[16.7 µM]	1.2
Cc1noc(C)c1NC(=O)N(C)C[C@H]1OCCCC[C@H](C)Oc2ccc(NC(=O)Nc3cccc4ccccc34)cc2C(=O)N([C@H](C)CO)C[C@@H]1C	23.2[16.7 µM]	3.3
O=C(C[C@H]1C[C@@H]2c3cc(NC(=O)Nc4ccccc4)ccc3O[C@@H]2[C@@H](CO)O1)NC1CCCCC1	12.6[16.7 µM]	53.8
C[C@@H]1CN([C@H](C)CO)C(=O)c2cc(-c3ccc(F)cc3)cnc2O[C@H]1CN(C)C(=O)Cc1ccccc1	5.5[16.7 µM]	8.2
O=C(C1=C[C@@H](c2ccc3c(c2)Cc2ccccc2-3)C[C@@H](OCCCCO)O1)N1CCCCC1	-8.7[16.7 µM]	3.3
C[C@H](CO)N1C[C@H](C)[C@@H](CN(C)Cc2ccc3c(c2)OCO3)Oc2ccc(NC(=O)Nc3ccc4c(c3)OCO4)cc2C1=O	14.6[16.7 µM]	-2.5
COc1ccc(-c2ccc3c(c2)O[C@@H](CN(C)C(C)=O)[C@H](C)CN([C@H](C)CO)S3(=O)=O)cc1	-5.8[16.7 µM]	-12.6
CCCNC(=O)N(C)C[C@@H]1Oc2ncc(C#C[C@H](C)O)cc2C(=O)N([C@H](C)CO)C[C@@H]1C	-9.9[16.7 µM]	-9.5
C[C@@H]1CN([C@@H](C)CO)C(=O)c2cc(C#CC3(O)CCCC3)cnc2O[C@@H]1CN(C)C(=O)C1CCC1	-5.5[16.7 µM]	4.4
C[C@H](CO)N1C[C@H](C)[C@H](CN(C)Cc2ccc(C(F)(F)F)cc2)Oc2c(cccc2N(C)C)C1=O	-12.8[16.7 µM]	0.9
Cc1noc(C)c1NC(=O)Nc1ccc2c(c1)C(=O)N([C@@H](C)CO)C[C@@H](C)[C@@H](CN(C)S(=O)(=O)c1cccs1)OCCCC[C@@H](C)O2	-54.5[16.7 µM]	8.0
O=C(C[C@H]1C[C@@H]2c3cc(NC(=O)c4ccc5c(c4)OCO5)ccc3O[C@@H]2[C@H](CO)O1)NCc1cccc(F)c1	-5.5[16.7 µM]	-4.4
C[C@@H]1CN([C@@H](C)CO)C(=O)c2cc(C#CCN(C)C)cnc2O[C@@H]1CN(C)C(=O)Nc1cccc(F)c1	-4.9[16.7 µM]	22.5
C[C@H](CO)N1C[C@H](C)[C@@H](CN(C)S(=O)(=O)c2cn(C)cn2)OCCCC[C@H](C)Oc2ccc(NC(=O)CCCN(C)C)cc2C1=O	3.4[16.7 µM]	-18.8
COc1cccc(NC(=O)N(C)C[C@H]2Oc3ncc(C#Cc4ccc(F)cc4)cc3C(=O)N([C@@H](C)CO)C[C@@H]2C)c1	-0.8[16.7 µM]	5.7
C[C@@H]1CCCCO[C@@H](CN(C)C(=O)C2CCCCC2)[C@@H](C)CN([C@H](C)CO)C(=O)c2cc(NC(=O)c3ccncc3)ccc2O1	-0.1[16.7 µM]	-0.3
COc1cccc(-c2cnc3c(c2)C(=O)N([C@@H](C)CO)C[C@H](C)[C@H](CN(C)CC2CCOCC2)O3)c1	-7.0[16.7 µM]	15.5
C[C@H](O)C#Cc1cnc2c(c1)C(=O)N([C@@H](C)CO)C[C@@H](C)[C@@H](CN(C)Cc1ccc(-c3ccccc3)cc1)O2	9.4[16.7 µM]	-8.6
CN(C)C(=O)C[C@H]1CC[C@@H](NC(=O)C2CCC2)[C@H](CO)O1	-2.5[16.7 µM]	-13.6
C[C@@H]1CN([C@@H](C)CO)S(=O)(=O)c2ccc(C#CCN(C)C)cc2O[C@@H]1CN(C)Cc1ccccc1F	0.9[16.7 µM]	2.7
COc1cccc(C(=O)Nc2ccc3c(c2)C(=O)N(C)[C@H]2CC[C@@H](CC(=O)NCc4ccc(F)cc4)O[C@H]2CO3)c1	?	3.5
Cc1ccc(S(=O)(=O)Nc2ccc3c(c2)CC(=O)N([C@@H](C)CO)C[C@H](C)[C@H](CN(C)S(=O)(=O)c2ccccc2)O3)cc1	67.3*[16.7 µM]	4.2
O=C(CCN1CCCCC1)NCC[C@H]1CC[C@H](NC(=O)C2CC2)[C@@H](CO)O1	3.9[16.7 µM]	-5.2
O=C(C[C@H]1C[C@@H]2c3cc(NC(=O)c4cccnc4)ccc3O[C@@H]2[C@@H](CO)O1)NCc1cccc(F)c1	-2.2[16.7 µM]	-17.5
CC(=O)N(C)C[C@H]1Oc2ncc(-c3ccc(C#N)cc3)cc2C(=O)N([C@@H](C)CO)C[C@H]1C	-9.6[16.7 µM]	-2.4
CCC(=O)N(C)C[C@@H]1Oc2cc(-c3ccncc3)ccc2S(=O)(=O)N([C@H](C)CO)C[C@H]1C	-23.3[16.7 µM]	3.4

Gathered by group, the compounds so far containing a thiophene ring, fused or not
SMILES	Env fusion inh	UUG fidelity
COc1ccc(NC(=O)Nc2ccc3c(c2)C(=O)N([C@H](C)CO)C[C@H](C)[C@H](CN(C)S(=O)(=O)c2cccs2)OCCCC[C@@H](C)O3)cc1	8.7[16.7 µM]	-8.3
Cc1noc(C)c1NC(=O)Nc1ccc2c(c1)C(=O)N([C@@H](C)CO)C[C@@H](C)[C@@H](CN(C)S(=O)(=O)c1cccs1)OCCCC[C@@H](C)O2	-54.5[16.7 µM]	8.0

A portion of the library; the hit share may differ from the screen's.
